FPR ligand: ligands of human FPR, also counter-screen for FPRL1 ligands. P21462. FPR-expressing cells, fluorescent ligand binding, flow cytometry. inhibition, %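 (tested at 6.7 µM)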. 0.74% of 24,000 active;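 note: 0% = buffer wells and 100% = receptor blocker peptide wells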
Target sequence (P21462 whole entry, looked up): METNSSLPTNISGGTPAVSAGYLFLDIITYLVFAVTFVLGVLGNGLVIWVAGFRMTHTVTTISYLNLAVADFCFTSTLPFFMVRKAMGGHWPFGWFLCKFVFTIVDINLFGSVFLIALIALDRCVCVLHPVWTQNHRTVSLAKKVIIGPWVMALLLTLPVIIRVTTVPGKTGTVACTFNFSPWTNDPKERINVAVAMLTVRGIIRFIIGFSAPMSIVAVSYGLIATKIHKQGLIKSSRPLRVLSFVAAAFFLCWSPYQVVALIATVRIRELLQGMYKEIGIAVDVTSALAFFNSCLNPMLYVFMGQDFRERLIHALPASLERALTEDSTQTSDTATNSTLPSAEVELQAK
VCAM-1 up imaging: boosters of cytokine-driven VCAM-1 levels – imaging, high-content imaging, pooled HUVEC, TNFa stimulus (AID 457); Pooled HUVEC, TNFa-induced VCAM-1 immunofluorescence imaging; hits of this screen are not shown here; calls only; 0.2% of 10,000 active;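 active = a top-ranked rise in VCAM-1 staining upheld on image or statistical review; inactive = the rest, including candidates rejected on review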;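 note: compounds tested at 5 µM in the well; cells exposed to compound for 24 hours before fixing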
VCAM-1 down: suppression of endothelial VCAM-1 upregulation – cell-based, plate reader, pooled HUVEC, TNFa stimulus (AID 454). HUVEC TNFa-induced VCAM-1 surface immunofluorescence, plate reader; numbers were filed only for top-ranked candidate wells. inhibition, % at 5 µM. 0.2% of 10,000 active;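 active = compound among top-ranked inhibitors of TNF-induced VCAM-1 adhesion protein staining, with the hit upheld by image or statistical review; inactive = the rest, including hits rejected on review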;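 note: 0% = TNFa with vehicle and 100% = cells without TNFa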
FPRL1 ligand: human FPRL1 ligand, with FPR counter-screen; FPRL1-expressing cells, fluorescent ligand binding inhibition, flow cytometry; inhibition, %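 (tested at 6.7 µM)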; 0.3% of 24,000 active; AID 441; P25090;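 note: 0% = buffer alone and 100% = receptor blocker peptide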
Target sequence (P25090 whole entry, looked up): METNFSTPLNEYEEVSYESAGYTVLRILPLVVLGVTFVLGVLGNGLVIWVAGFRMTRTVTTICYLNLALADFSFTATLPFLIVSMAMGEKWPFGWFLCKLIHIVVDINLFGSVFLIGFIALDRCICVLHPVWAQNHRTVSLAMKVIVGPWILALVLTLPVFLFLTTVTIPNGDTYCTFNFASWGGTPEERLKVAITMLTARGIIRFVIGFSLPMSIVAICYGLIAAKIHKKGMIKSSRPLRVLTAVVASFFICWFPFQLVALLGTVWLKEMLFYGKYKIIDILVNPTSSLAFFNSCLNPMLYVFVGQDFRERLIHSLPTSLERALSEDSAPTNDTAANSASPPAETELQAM
VCAM-1 imaging: suppression of endothelial VCAM-1 upregulation – imaging, high-content imaging, pooled HUVEC, TNFa stimulus (AID 456); HUVEC TNFa-induced VCAM-1 surface expression, immunofluorescence imaging; numbers were filed only for top-ranked candidate wells; one-dose inhibition, % at 5 µM; IC50 in µM for titrated hits; 0.2% of 10,000 active;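 active = top tenth filtered wells with inhibition above zero that passed visual or statistical confirmation; inactive = the rest, including hits rejected on review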;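 note: 0% = stimulated vehicle wells and 100% = unstimulated cells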
* hit, by the source's call; i = inactive; . = no result given.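 Rule for the calls, unless noted: active = mean above 30%; inconclusive = self-fluorescent; inactive = the rest.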 This is a subset; rates above refer to the full screens.

compound	FPR ligand	VCAM-1 up imaging	VCAM-1 down	FPRL1 ligand	VCAM-1 imaging
CCN(CC)C(=O)c1scc2c1OCCO2	-0.1	.	.	-1.3	.
CCOc1cc(C2C(C(=O)c3ccc(C)cc3)=C(C(=O)OC)Nc3nnnn32)ccc1O (configuration not stated)	-1.8	.	.	-3.2	.
COc1cc(C(=O)N2CCN(c3ccc(C)cc3C)CC2)cc(OC)c1OC	0.3	.	.	-5.8	.
COCCNC(=O)CC(NS(=O)(=O)c1ccc(NC(C)=O)cc1)C(C)C (configuration not stated)	0.4	i	i	-1.4	i
O=C(NCc1ccc(Cl)cc1)c1ccc(COCC(F)(F)F)o1	-0.4	i	i	1.0	i
CC1=Nc2ccc(C)cc2N(Cc2ccccc2)C(=O)C1	3.5	.	.	-1.2	.
COC(=O)CN(c1ccc(F)cc1)S(=O)(=O)c1ccccc1	-2.2	i	i	-4.0	i
COc1ccc(NC(=O)C2CCCN2S(=O)(=O)c2cccc3cccnc23)c(OC)c1 (configuration not stated)	-0.6	i	i	-0.5	i
COc1ccc(COC(=O)c2n[nH]c3ccccc23)cc1F	-1.4	i	i	-2.7	i
CCC1CCCCN1C(=O)CSc1nnc(CNC(=O)c2ccco2)o1 (configuration not stated)	9.3	.	.	6.3	.
CCn1c(=O)cc(OCC(=O)N2CCCC2)c2ccccc21	2.7	.	.	6.0	.
N#Cc1ccc(CSc2nnc(-c3ccccn3)n2-c2ccccc2)cc1	-3.0	i	i	-3.5	i
CCN(C(=O)Cc1c(C(=O)O)[nH]c2ccccc12)c1cc(OC)ccc1OC	32.2*	i	i	-0.1	i
CN(CCO)CC(O)Cn1cnc2c1c(=O)n(C)c(=O)n2C (configuration not stated) (tested in a mixture with another compound)	-3.4	i	i	-2.8	i
O=C(Nc1ccc(N2CCCC2)cc1)c1cccc(F)c1	8.9	i	i	3.9	i
O=C(CN1CCN(c2ccccn2)CC1)Nc1ccc(Cl)c(C(F)(F)F)c1	-1.9	.	.	2.2	.
COc1cccc(C(=O)NCc2nnc(SCC(=O)Nc3nccs3)n2-c2cccc(C)c2)c1	9.8	.	.	3.5	.
CCS(=O)(=O)N1CCC(C(=O)N2CCOCC2)CC1	3.8	i	i	4.1	i
Cc1cc2ccccc2c(=O)n1CC(=O)NCC(=O)N1CCCC1	3.9	.	.	-2.8	.
O=C(c1ccco1)N1CCN=C1SCc1c(F)cccc1Cl	-0.6	.	.	0.8	.
O=C(NC1CCCCCC1)c1cccc(N2CCCC2=O)c1	13.8	.	.	8.3	.
CCOC(=O)c1cc2n(c1C)-c1ccccc1C2=O	-0.4	.	.	0.1	.
Oc1ccc(C=Nc2cccc3ncccc23)c(O)c1	-3.3	i	i	-2.3	i
COc1ccc(NC(=O)Nc2ccccc2C)c(OC)c1	8.8	i	i	-1.9	i
COc1ccccc1N1CCN(CC(=O)Nc2ccc(C)c(F)c2)CC1	4.7	.	.	6.3	.
CC(=O)OC(Cn1ccnc1)c1ccccc1 (configuration not stated)	2.3	.	.	-2.3	.
Nc1ncnc2oc(-c3ccco3)c(-c3ccco3)c12	-2.6	i	i	2.9	i
O=C(CCNC(=O)Cn1ccc2ccccc2c1=O)NCCN1CCc2ccccc2C1	-3.8	i	i	-0.8	i
Cn1cc(Cl)c(C(=O)NC2CCCC2)n1	-1.9	i	i	0.3	i
COC(=O)C(C)Sc1nnc(Cc2cc(=O)[nH]c(=O)[nH]2)n1-c1ccc(OC)cc1 (configuration not stated)	1.4	.	.	-7.5	.
CC1CC(C)CN(CCCNC(=O)CC2Oc3ccccc3NC2=O)C1 (configuration not stated)	-3.0	.	.	3.7	.
CN1CCN(CCCN2c3ccccc3Sc3ccc(Cl)cc32)CC1	5.6	i	i	6.1	i
COc1cc2[nH]c(=O)n(CCCCCC(=O)N3CCN(c4ccccn4)CC3)c(=O)c2cc1OC	5.5	i	i	-7.2	i
CCc1oc2c(C)c(O)ccc2c(=O)c1-c1ccc2ccccc2n1	-3.6	.	.	-7.1	.
CCOC(=O)c1ccccc1NC1CC(=O)N(c2ccccc2C)C1=O (configuration not stated)	-20.9	i	i	5.1	i
COc1ccc(C)cc1NC(=O)CN(C)S(=O)(=O)c1cccs1	-0.9	.	.	6.3	.
Cc1ccc2c(c1)NC(=O)C(CC(=O)Nc1ccc(CN3CCC(C)CC3)cc1)O2 (configuration not stated)	-7.4	.	.	0.9	.
Cc1noc(C)c1CSc1nnc2scc(-c3ccccc3)n12	-2.8	.	.	-0.1	.
CCOc1ccc(-n2c(SCC(=O)NCc3ccco3)nc3c([nH]c4ccccc43)c2=O)cc1	-2.9	.	.	2.9	.
Cn1nc(-c2ccc(Cl)cc2)c2cc(C(=O)N3CCN(c4ccccc4)CC3)sc21	-7.9	.	.	-3.3	.
Cc1ccc(S(=O)(=O)N2CCN(C(=O)CSc3nnnn3C)C2)cc1	-1.9	i	i	1.8	i
C=CCSc1nnc(-c2ccccc2NC(C)=O)c(=O)[nH]1	2.7	i	i	0.3	i
CCc1ccc(NC(=O)Nc2cccs2)cc1	-2.7	.	.	4.8	.
CCN(CC)CCCNC(=O)Cn1cc2c(n1)CCC(C)C2 (configuration not stated)	8.9	.	.	18.4	.
COc1ccccc1-c1cc(N)n[nH]1	13.0	.	.	10.3	.
CCNC(=O)c1ccccc1NC(=O)c1cccc(S(=O)(=O)N2CCC(C)CC2)c1	-0.8	.	.	-0.5	.
Cc1cc(-n2c(SCC(=O)NCc3cccs3)nc3n[nH]c(C)c3c2=N)ccc1Cl	5.3	.	.	2.2	.
COc1cc(SC)ccc1C(=O)Nc1ccon1	-0.4	i	i	1.8	i
COc1cccc(C2=NOC(C(=O)NCc3ccccn3)C2)c1 (configuration not stated)	2.6	.	.	0.8	.
COc1ccccc1NC(=O)CC(NCc1ccccc1)C(=O)O (configuration not stated)	1.9	i	i	-0.2	i
Cc1ccc(S(=O)(=O)c2c(C)nn(C(C)(C)C)c2OC(=O)c2cccs2)cc1	1.5	.	.	-12.2	.
COc1cc(C2=NOC(C(=O)NCc3ccco3)C2)cc(OC)c1OC (configuration not stated)	-0.1	.	.	3.2	.
Cn1c(=O)[nH]c(=O)c2c1nc(CN1CCN(c3ccc(F)cc3)CC1)n2CCc1ccccc1	-0.9	.	.	-3.3	.
CCOC(=O)Cc1c(C)c2c(O)cc(O)cc2oc1=O	3.3	i	i	3.2	i
CCOC(=O)N1CCC(NC(=O)CCC(=O)N2CCOc3ccc(C)cc32)CC1	7.0	.	.	2.2	.
Cn1c(=O)cc(OCCCC(=O)NCCN2CCN(c3ccccc3F)CC2)c2ccccc21	-3.6	.	.	-2.7	.
CCOC(=O)c1c(C)[nH]c(C(=O)COC(=O)c2ccc(F)c(S(=O)(=O)N3CCOCC3)c2)c1C	-6.2	i	i	-6.6	i
CC(=O)Nc1ccc(S(=O)(=O)n2nc(C)cc2C)cc1	-6.2	i	i	-4.3	i
Cc1ccc(/C(O)=C2/C(=O)C(=O)N(Cc3cccnc3)C2c2ccccn2)cc1 (configuration not stated)	-1.0	.	.	0.8	.
O=C(CCNS(=O)(=O)c1ccc(Br)s1)N1CCCCC1	-2.2	i	i	1.7	i

Additional structures
compound	FPR ligand	VCAM-1 up imaging	VCAM-1 down	FPRL1 ligand	VCAM-1 imaging
Nc1nc(SCCOc2ccccc2)n[nH]1	1.4	i	i	4.4	i
O=C(O)[C@@H]1CCCN1c1ncnc2sc3c(c12)CCC3	8.1	i	i	5.5	i
Cc1c(/C(O)=C2\C(=O)C(=O)N(CCN(C)C)C2c2cccnc2)cnn1-c1ccccc1 (configuration not stated)	-5.2	.	.	-5.0	.
CCOC(=O)CSc1cc(=O)n(C)c2cc(Cl)ccc12	6.0	.	.	2.3	.
COc1cc2[nH]c(=O)n(CCC(=O)NC3CCN(Cc4ccccc4)CC3)c(=O)c2cc1OC	16.4	.	.	23.0	.
O=S(=O)(c1cc(Cl)ccc1Cl)N1CCN(Cc2ccc3c(c2)OCO3)CC1	0.1	.	.	-1.0	.
CS(=O)(=O)N1CCCC(C(=O)NC2CCCCCCC2)C1 (configuration not stated)	-13.9	.	.	3.4	.
C=C(C)COc1ccc(-c2nc(N)ncc2Oc2ccccc2OCC)c(O)c1	6.0	i	i	-0.8	i
O=C(NCc1cccnc1)c1ccc(=O)oc1	-8.4	i	i	7.4	i
CCOc1ccc2oc(-c3ccccc3)c(C(=O)N3CCN(CCO)CC3)c2c1	2.8	i	i	-4.6	i
COc1ccc(-n2nc3c(c2NC(=O)C2CC2)CS(=O)C3)cc1 (configuration not stated)	-2.1	.	.	-14.8	.
CS(=O)(=O)N1CCC(c2noc(-c3ccc(C(F)(F)F)cc3)n2)CC1	1.6	.	.	-1.9	.
CCCS(=O)(=O)NCc1ccc2c(c1)cc(C)n2C	-2.0	.	.	2.7	.
COc1cccc(NC(=O)CSc2nccn2-c2cccc(OC)c2)c1	-2.0	.	.	2.7	.
CCOC(=O)c1[nH]c2ccc(OC)cc2c1NC(=O)CCN1CCC(C)CC1	-0.3	i	i	4.9	i
O=C(Cn1ccc2ccccc2c1=O)N1CCN(Cc2ccc3c(c2)OCO3)CC1	-2.1	.	.	0.6	.
CC12CCC(C(=O)O)(c3nc(C#N)c(C#N)nc31)C2(C)C (configuration not stated)	-1.5	i	i	3.4	i
CCN(CC(=O)Nc1ccc2c(c1)OCCO2)Cc1cc(=O)oc2cc(C)c(C)cc12	16.3	i	i	1.1	i
O=C(NCCN1CCOCC1)c1ccc(CS(=O)(=O)c2ccc(Br)cc2)o1	-4.1	.	.	0.6	.
Cc1ccc(CCNC(=O)c2nnn(-c3cc(C)cc(C)c3)c2N)cc1	2.2	.	.	-2.5	.
CN1CCN(Cc2c(O)ccc3c(=O)c(Oc4ccccc4Cl)c(C(F)(F)F)oc23)CC1	-7.1	.	.	2.1	.
CCCCN=C(N)/C(C(=O)OCC)=C(\O)c1ccc(OC)cc1	-2.0	.	.	0.1	.
COc1ccc(S(=O)(=O)Cc2ccc(C(=O)NCCCN(C)c3ccccc3)o2)cc1	1.0	.	.	-1.6	.
CN(C)c1ccc(C2C3C(=O)NC(=O)C3ON2c2ccc(Cl)cc2)cc1 (configuration not stated)	1.0	.	.	-5.0	.
COCCNC(=O)c1ccc(CS(=O)(=O)c2ccc(C)cc2)o1	-4.7	.	.	0.2	.
O=C1CC2(CCCCC2)Oc2ccc(O)cc21	0.3	.	.	3.2	.
Cc1cc(C)n(-c2nncn2/N=C/c2ccccc2F)n1	2.4	.	.	3.2	.
COc1cccc2sc(Nc3nnc(-c4cccs4)o3)nc12	5.0	.	.	-17.3	.
COc1cccc(-c2cc(C(=O)Nc3cnn(Cc4ccc(F)cc4)c3)no2)c1	-1.1	.	.	2.6	.
CCOC(=O)c1c(C)c(C(=O)NCCCN2CCCC2=O)c(C)n1CC	-3.6	.	.	0.9	.
CCC(=O)Nc1cc(C)c(NC(=O)C23CC4CC(CC(C4)C2)C3)cn1	6.3	i	i	11.5	i
CSCC[C@@H](C(=O)Nc1ccc2c(c1)OCCO2)N1Cc2ccccc2C1=O	-0.8	.	.	-1.3	.

3 of these compounds in a different format:
> CN(C)c1ccc(C2C3C(=O)NC(=O)C3ON2c2ccc(Cl)cc2)cc1 (configuration not stated)
  FPR ligand = 1.0	VCAM-1 up imaging = .	VCAM-1 down = .	FPRL1 ligand = -5.0	VCAM-1 imaging = .
> CC12CCC(C(=O)O)(c3nc(C#N)c(C#N)nc31)C2(C)C (configuration not stated)
  FPR ligand = -1.5	VCAM-1 up imaging = i	VCAM-1 down = i	FPRL1 ligand = 3.4	VCAM-1 imaging = i
> COCCNC(=O)c1ccc(CS(=O)(=O)c2ccc(C)cc2)o1
  FPR ligand = -4.7	VCAM-1 up imaging = .	VCAM-1 down = .	FPRL1 ligand = 0.2	VCAM-1 imaging = .

Screening data (PubChem BioAssay)
